ugtP null kill: compounds lethal to S. aureus RN4220 ugtP deletion mutant; AID 1259309; growth inhibition, % (concentration not given with the values); 0.54% of 330,000 active; OD600 growth, 16 h; some inactives read as strong as hits;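 active = z-score under -3 and OD600 up to 0.15 on both plates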;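 also: plate controls were untreated wells for no effect and antibiotic for full effect; wells of about 80 µL received 100 nL stock; the first replicate is given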
Mtb hypoxia rep: reduces hypoxia-regulated biosensor signal in M. tuberculosis; M. tuberculosis hypoxia-regulated fluorescent reporter, fluorescence; 0.1% of 300,000 active; fluorescence inhibition, % (concentration not given with the values);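 active = 35 to 45% if threefold the growth effect, above 45% if 1.5-fold the growth effect; inactive = the rest, general growth blockers included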;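 also: wells of about 50 µL received 100 nL stock; 0% = vehicle wells and 100% = reference inhibitor wells; whole bacteria with a GFP reporter of the hypoxia response; strong numbers were not always called active; many hits fall short of the cut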
PrP 5UTR inh: suppresses PrP 5' UTR mRNA reporter expression; cell-based PrP 5' UTR mRNA reporter, plate reader; 0.35% of 340,000 active; inhibition, % (concentration not given with the values); AID 488862;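 active = every replicate at 50% or more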;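 also: 0 = median of the neutral control wells; tested in H4 reporter cells; numbers are from one replicate; inactives centre near -14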
RN4220 kill: kills Staphylococcus aureus RN4220 | 0.33% of 330,000 active | inhibition, % (concentration not given with the values) | S. aureus RN4220 growth, OD600, 16 h;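 active = z-score of -3 or lower and OD600 up to 0.18 on both plates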;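 also: plate controls were untreated cells for no effect and reference antibiotic for full effect; stock transfer was 100 nL into about 80 µL; one replicate is shown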
BJeLR lethal: kills HRASV12-expressing BJeLR cells; BJeLR (HRASV12) viability, CellTiter-Glo ATP luminescence, 48 h; reference of the scale not given here; inhibition, % (concentration not given with the values); 0.17% of 300,000 active; AID 1554;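 active = replicate mean above 50%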;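 also: 50 nL library stock added to about 25 µL; numbers are from one replicate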
Autofluor counter: counter-screen for toxin protease inhibitors: compound fluorescence; fluorescence intensity (concentration not given with the values); AID 624483; 3.1% of 360,000 active; compound autofluorescence counterscreen, microsphere flow cytometry; hits give high values;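 active = at least 3 SD above the mean of all compounds, about 16000 in these data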;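 also: 100 nL of 1 mM stock went into each well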
Mtb hypoxia rep growth: second read-out of Mtb hypoxia rep, no call of its own (marks repeat the call); growth inhibition, %; measured here: M. tuberculosis growth (absorbance);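 0% = vehicle and 100% = reference antibiotic; read after six days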
Starred values were filed as active, the others as inactive; . = not tested or not shown. The order is random. About 4% of those tested had a hit in this group.

Sequence of screens – ugtP null kill, Mtb hypoxia rep, Mtb hypoxia rep growth, PrP 5UTR inh, RN4220 kill, BJeLR lethal, Autofluor counter
> Cc1ccsc1-c1ccnc(-n2cccc2)n1
    46, -3, 9, -25, 0.9, -6, 16296*
> N/C(=N\OC(=O)c1cccc2ccccc12)c1ccc(Br)cc1
    ., ., ., -3, ., -20, 2383
> CCN(Cc1nc2cc(Cl)ccc2c(=O)[nH]1)C(=O)COc1ccccc1Cc1ccccc1
    4, 11, 4, -10, 5.3, ., 8207
> Cc1ccc(S(=O)(=O)N2CCN(C(=O)CSc3ccc(F)cc3)CC2)cc1
    9, 2, 1, -34, 5.7, -7, 3422
> O=C(Nc1ccc(S(=O)(=O)N2CCCc3ccccc32)cc1)C1CCCO1 (stereo unspecified)
    -13, -10, 6, -6, 4.5, 6, 17480*
> O=C(NNc1ccc(F)cc1F)c1c(F)cccc1Cl
    5, 14, 4, -25, 3.4, -3, 3619
> Cc1cc(Cl)ccc1OC(C)C(=O)NC(C)C1CCCO1 (stereo unspecified)
    4, 9, 18, 11, 4.1, -1, 6289
> CN1C(=O)C(C)(C)c2cc(S(=O)(=O)N3CCCC(C(=O)NCc4ccc(F)cc4)C3)ccc21 (stereo unspecified)
    12, -3, -2, -27, 1.0, 10, 5333
> Cc1ccc(C(=O)NN=Cc2ccc(OC(=O)c3ccccc3Cl)cc2)cn1
    -2, 4, 0, ., 4.1, ., .
> Cc1cccn2c(=O)c3cc(C(=O)NC(C)c4ccccc4)c(=N)n(CCCn4ccnc4)c3nc12 (stereo unspecified)
    9, 20, 19, -73, -0.4, 1, 5800
> CCS(=O)(=O)N1Cc2ccccc2CC1C(=O)Nc1ccc(OC)c(OC)c1 (stereo unspecified)
    7, 1, 6, -9, -1.6, -5, 5710
> CCNC(=O)CN(c1ccccc1)S(=O)(=O)c1ccc(Cl)cc1
    7, 18, 4, -30, 3.9, 5, 15696
> CCCCN1C(=O)C2ON(c3ccccc3C)C(c3ccco3)C2C1=O (stereo unspecified)
    -4, 20, 5, -22, 20, 5, 9119
> CC(C)Cn1c(=S)[nH]c2cc(Cl)ccc21
    1, -7, 2, -18, 9.6, 8, 3810
> O=C(COc1ccccc1-c1ccccc1)NN=Cc1ccc2ccccc2c1
    30, 5, -1, ., 6.7, ., .
> COc1ccc(C2=NOC(C(=O)Nc3ccc4c(c3)OCCO4)C2)cc1OC (stereo unspecified)
    12, 8, 0, -23, -1.3, 7, 3836
> O/N=C(/CCc1ccccc1)C1(O)CCCCC1
    ., ., ., -4, ., 5, 7896
> COC(=O)c1cc(=O)n(CCc2ccccc2)c(=Nc2ccc(F)cc2)s1
    14, -1, 13, -16, 6.3, -4, 5569
> CCOC(=O)C(C)c1nc2ccccc2[nH]c1=O (stereo unspecified)
    -3, 3, 10, -19, 3.7, -2, 10920
> c1ccn2cc(-c3ccc4c(c3)OCCO4)nc2c1
    12, 13, 13, 40, 5.9, 17, 3395
> COc1ccccc1-c1nnc(NC(=O)c2ccccc2F)o1
    -15, -11, 0, -20, 4.5, -6, 5819
> COc1cc(NC(=O)C2CC(c3c(F)cccc3Cl)=NO2)c(OC)cc1Cl (stereo unspecified)
    4, -4, -12, -7, -1.5, -7, 3825
> COc1ccc(C/C(C)=N/NC(=S)Nc2ccccc2)cc1
    ., ., ., -51, ., 20, 2140
> CC[n+]1oc(-c2ccccc2)cc1C
    5, -3, 0, -21, 1.7, -2, 2204
> COc1cccc(/C=N/NC(=O)C(=O)NCc2cccnc2)c1
    ., ., ., 4, ., 11, 8142
> Cc1cccc(C(=O)N2CCCCCC2)c1
    15, 21, 11, -25, 7.9, 5, 6895
> Cc1cccc(NC(=O)CN(C)S(=O)(=O)c2ccc3c(c2)n(C)c(=O)c(=O)n3C)c1C
    4, 3, 6, -15, 1.9, 5, 5704
> c1ccc(N2CCN(Cc3ccc4c(c3)OCO4)CC2)nc1
    1, 0, 5, ., 3.8, -5, 3614
> Cc1cc(C(=O)NC2CC(C)(C)Cc3c2cnn3-c2ccccc2C)c(C)o1 (stereo unspecified)
    0, 0, 0, -7, 3.0, 0, 4475
> Cc1nc2ccccc2nc1N1CCCCC1
    -3, 2, 10, -25, -4.4, ., 2392
> CC(C)c1ccc(NC(=O)[C@@H]2CCC(=O)N2C2OC(=O)c3ccccc32)cc1 (stereo partly specified)
    8, ., ., -36, -0.3, 7, 5415
> COC(=O)c1ccccc1NC(=O)c1cc2ncc(Br)cn2n1
    -3, ., ., -12, 1.6, 1, 5195
> COc1ccccc1NC(=O)c1ccc(COc2ccccc2OC)cc1
    -11, 1, 6, -12, 0.1, 6, 3931
> COC(=O)c1cc(Br)c(=O)n(CCc2ccccc2)c1
    -6, 2, 1, -5, -9.3, -2, 3365
> CCn1c(CNC(=O)c2cccc(C)c2)nnc1SCC(=O)NC1CCCCC1C (stereo unspecified)
    1, ., ., -4, 0.8, 0, 3652
> CC(=O)N1CCN(C(=O)c2cc(=O)c3ccccc3o2)CC1
    -5, -7, 2, -26, 3.7, -2, 2954
> CCC(C)N(C(=O)c1csnn1)C(C(=O)NC(C)(C)C)c1ccccc1 (stereo unspecified)
    -4, ., ., -2, 0.2, -15, 4575
> COc1ccc(OCc2cc(C(=O)NC3Cc4ccccc4C3)no2)c(Cl)c1
    -6, -13, -10, -25, 0.1, 32, 4361
> Cc1cc(CSc2ccccc2)ccc1NC(=O)c1ccc(Br)cc1
    2, 8, 9, -5, -2.5, -5, 4599
> CC(=O)[C@@]1(O)CCC2C3CC=C4C[C@@H](O)CC[C@]4(C)C3CC[C@@]21C (stereo partly specified)
    16, 11, 10, -20, 4.6, ., 3910
> O=C(COc1ccc2ccccc2c1)Nc1nc2ccccc2[nH]1
    -6, 6, 0, -1, -5.9, ., 2509
> Cc1nnc(SCC(=O)Nc2ccc(Br)cc2)n(N)c1=O
    -1, 9, 10, -12, -1.0, -7, .
> O=C(NN=C(Cc1ccccc1)Cc1ccccc1)c1ccccc1F
    12, 8, 12, 32, 9.8, 6, 3216
> COc1ccc(-n2nc(C(=O)NCC(=O)O)c3ccccc3c2=O)cc1
    2, 8, -4, -13, 0.3, 3, 3836
> CCCOc1cccc(-c2cc(C(=O)N/N=C/c3ccccn3)c3ccccc3n2)c1
    ., ., ., 5, ., 10, 6685

Next section, overlapping the part above by 2 compounds.
Sequence of screens – ugtP null kill, Mtb hypoxia rep, Mtb hypoxia rep growth, PrP 5UTR inh, RN4220 kill, BJeLR lethal, Autofluor counter
> COc1ccc(-n2nc(C(=O)NCC(=O)O)c3ccccc3c2=O)cc1
    2, 8, -4, -13, 0.3, 3, 3836
> CCCOc1cccc(-c2cc(C(=O)N/N=C/c3ccccn3)c3ccccc3n2)c1
    ., ., ., 5, ., 10, 6685
> Cc1oc(/C=N/NC(=O)CN(c2ccccc2Cl)S(C)(=O)=O)cc1Br
    ., ., ., -25, ., -6, 2617
> COc1ccc(NC(=O)NC(CCSC)C(=O)O)cc1Cl (stereo unspecified)
    0, 0, 8, ., 4.2, ., .
> CCOC(=O)C1CCN(C(=O)Cc2ccccc2OC)CC1
    -1, 1, -1, -8, 6.1, -9, 3363
> O=C(ON=C1CCN(c2ccc([N+](=O)[O-])cc2)CC1)c1ccccc1
    13, 4, 16, -14, 0.0, -7, 19501*
> CN(C)N1C(N)=C(C#N)C(c2cccc3ccccc23)C2=C1CC(c1ccccc1)CC2=O (stereo unspecified)
    7, -2, 4, -26, -6.8, 2, 2059
> CC(=NNC(=O)CC1N=C(Cc2ccccc2)NNC1=O)c1cccnc1 (stereo unspecified)
    4, -7, 8, ., 5.9, ., .
> OCC[C@H]1C[C@@H](O)[C@H](O)[C@]2(CCCCO2)O1
    ., ., ., -14, ., -11, 4117
> CCOC(=O)c1cc(C(=O)n2cc(Cl)cn2)nn1C
    3, ., ., -4, 2.9, -9, 2489
> COc1cccc(OCCOc2cccc(/C=N/n3cnnc3)c2)c1
    ., ., ., -31, ., 9, 23920*
> C=CCn1c(SCC(=O)Nc2ccc(Cl)cn2)nnc1C1CC1
    -1, 1, 13, 1, 4.8, 0, 5537
> CO/N=C/c1ccc(N2CCN(C(=O)c3cccc(Cl)c3)CC2)c([N+](=O)[O-])c1
    ., ., ., -9, ., 8, 22652*
> COc1ccccc1N(C(=O)Cn1nnc2ccccc21)C(C(=O)NCc1ccco1)c1ccc(C)o1 (stereo unspecified)
    -1, ., ., 6, 0.1, -3, 4754
> CC1(C)CC(NC(=O)Cc2ccc(Cl)cc2)CC(C)(C)N1
    8, 2, 2, -22, -3.5, 8, 3986
> NCCCC[C@H]1CNC(=S)N1CC1(c2ccccc2)CC1
    ., ., ., -8, ., 3, 3531
> Cc1cc(C(=O)NC2CCCc3ccccc32)no1 (stereo unspecified)
    -5, 7, 10, -18, 3.3, 2, 11714
> COc1ccc(NC(=O)C2(c3ccccc3)CCCC2)cc1
    0, 11, -4, -9, 5.6, 5, 4149
> Nc1ccc(-c2ccc(N)cc2C(F)(F)F)c(C(F)(F)F)c1
    0, ., ., -22, 10, -12, 2830
> Nc1ccc(S(=O)(=O)N2CCCCC2c2cccnc2)cc1 (stereo unspecified)
    9, ., ., -9, 2.6, 1, 4028
> CC(C)OC(=O)c1nnn(-c2nonc2N)c1CN1CCCCCC1
    3, 2, -3, -15, 9.3, -4, 9496
> O=C(CN1C2=NCCCN2c2ccccc21)c1cccs1
    6, ., ., 2, 0.0, 12, 2228
> COc1ccc(-c2nc3c4ccccc4ccn3c2CN2CCCCC2)cc1OC
    5, 0, 8, -23, -0.1, -1, 5180
> COc1cccc2cc(C(=O)N3CCN(C(=O)c4ccccc4)CC3)c(=O)oc12
    0, 6, 8, 4, 6.2, -3, 2636
> CC(C)N(Cc1nccn1C)C(=O)CC1C(=O)NCCN1Cc1ccc(F)c(F)c1 (stereo unspecified)
    13, 6, -13, -16, 1.3, -8, 3764

At a glance, part of the list above:
Sequence of screens – ugtP null kill, Mtb hypoxia rep, Mtb hypoxia rep growth, PrP 5UTR inh, RN4220 kill, BJeLR lethal, Autofluor counter
> C=CCn1c(SCC(=O)Nc2ccc(Cl)cn2)nnc1C1CC1
    -1, 1, 13, 1, 4.8, 0, 5537
> CO/N=C/c1ccc(N2CCN(C(=O)c3cccc(Cl)c3)CC2)c([N+](=O)[O-])c1
    ., ., ., -9, ., 8, 22652*
> COc1ccccc1N(C(=O)Cn1nnc2ccccc21)C(C(=O)NCc1ccco1)c1ccc(C)o1 (stereo unspecified)
    -1, ., ., 6, 0.1, -3, 4754
> CC1(C)CC(NC(=O)Cc2ccc(Cl)cc2)CC(C)(C)N1
    8, 2, 2, -22, -3.5, 8, 3986
> NCCCC[C@H]1CNC(=S)N1CC1(c2ccccc2)CC1
    ., ., ., -8, ., 3, 3531
> Cc1cc(C(=O)NC2CCCc3ccccc32)no1 (stereo unspecified)
    -5, 7, 10, -18, 3.3, 2, 11714
> COc1ccc(NC(=O)C2(c3ccccc3)CCCC2)cc1
    0, 11, -4, -9, 5.6, 5, 4149
> Nc1ccc(-c2ccc(N)cc2C(F)(F)F)c(C(F)(F)F)c1
    0, ., ., -22, 10, -12, 2830
> Nc1ccc(S(=O)(=O)N2CCCCC2c2cccnc2)cc1 (stereo unspecified)
    9, ., ., -9, 2.6, 1, 4028
> CC(C)OC(=O)c1nnn(-c2nonc2N)c1CN1CCCCCC1
    3, 2, -3, -15, 9.3, -4, 9496
> O=C(CN1C2=NCCCN2c2ccccc21)c1cccs1
    6, ., ., 2, 0.0, 12, 2228
